Source: PubChem (National Center for Advancing Translational Sciences (NCATS))
AmpC nodet inh: AmpC beta-lactamase inhibition, detergent-free assay; P00811; AmpC nitrocefin hydrolysis, absorbance 480 nm, no detergent; potencies from a single point are estimates; Potency, µM (top dose mostly 28.7 µM), for the others: at the highest dose activity change, negative = inhibition; actives 1.8% (n = 71,000); active = falling curve, for most hits resting on a single point; inconclusive = weak or doubtful change; inactive = flat or rising curve; further: % of control where 0% means no effect; about half of the hits show no inhibition at the top dose; a quarter of the inactives give rising signals
Target sequence (P00811 whole entry, looked up): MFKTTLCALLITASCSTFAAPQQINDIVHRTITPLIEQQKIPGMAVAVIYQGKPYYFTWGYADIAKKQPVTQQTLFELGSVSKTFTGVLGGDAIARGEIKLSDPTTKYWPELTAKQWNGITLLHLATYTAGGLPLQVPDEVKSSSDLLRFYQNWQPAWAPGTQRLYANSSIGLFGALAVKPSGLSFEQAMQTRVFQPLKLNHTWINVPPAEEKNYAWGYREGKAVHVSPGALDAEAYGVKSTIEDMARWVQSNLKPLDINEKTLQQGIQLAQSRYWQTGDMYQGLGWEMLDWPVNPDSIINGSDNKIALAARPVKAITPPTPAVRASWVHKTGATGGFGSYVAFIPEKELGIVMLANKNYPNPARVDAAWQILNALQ
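Enzyme, pH 7.0 phosphate. Compound titrations were pre-incubated with AmpC for 15 min at room temperature before nitrocefin (stock 800 uM) addition; product formation was recorded at 480 nm every 20 s for 4 min.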
* = called active by the depositor; ? = inconclusive; [ ] = remark or other dose. Potency means the concentration at half of the fitted maximal effect. Not all compounds are listed, so the mix of outcomes need not match the whole.

SMILES	AmpC nodet inh
CCOC(=O)NCc1ccc2c(c1)cc(C)n2C	-7%
CN(C)c1ccc(C(c2nnnn2C(C)(C)C)N2CCN(C(=O)c3ccco3)CC2)cc1 (centres undefined)	109%
CC(C)(C)OOC(C)(C)C	-4%
O=C(O)C/C(=C\c1ccco1)C(=O)O	8%[5.75 µM]
O=C(CSc1n[nH]c(-c2cccnc2)n1)Nc1ccnc2ccccc12	-19%
CCOC(=O)CSc1nnc(C2CCCCC2)n1C	0%
CN(C)c1ccc(NC(=O)CN2CCN(CC(=O)Nc3ccc(F)cc3)CC2)cc1	28%
CC(C)C(=O)Nc1cccc(-c2cn3ccsc3n2)c1	-11%
CC(=O)N1CC=C2C(C#N)=C(N)C(C#N)(C#N)C(C)C2C1 (centres undefined)	-13%
CC(C)(C)C1CCc2onc(C(=O)Nc3ccc(F)cc3F)c2C1 (centres undefined)	-7%
COC(=O)CN(c1ccc(C)c(Cl)c1)S(C)(=O)=O	-2%
O=C(O)c1cccc2c1C(=O)N(C1CCCCC1)C2	1%
O=C(c1cnn2ccccc12)N1CCc2ccccc21	20%
COc1ccccc1-c1cc(Nc2ccc(F)cc2)ncn1	23%
O=C(COc1ccccc1)Nc1cccc2nsnc12	0%

Already shown: an excerpt of the list.
SMILES	AmpC nodet inh
CCOC(=O)NCc1ccc2c(c1)cc(C)n2C	-7%
CN(C)c1ccc(C(c2nnnn2C(C)(C)C)N2CCN(C(=O)c3ccco3)CC2)cc1 (centres undefined)	109%
CC(C)(C)OOC(C)(C)C	-4%
O=C(O)C/C(=C\c1ccco1)C(=O)O	8%[5.75 µM]

Further structures
SMILES	AmpC nodet inh
Cn1c(=O)c2c(ncn2CC(=O)N2CCN(c3cccc(Cl)c3)CC2)n(C)c1=O	53%
C/C(=C1/SC(N2CC(C)OC(C)C2)=NC1=O)c1ccccc1 (centres undefined)	49%
Nc1ccc(CCNc2ncnc3c2ncn3[C@@H]2O[C@@H](CO)[C@H](O)[C@@H]2O)cc1	-4%
Cc1cc(=O)oc2n[nH]c(-c3ccccc3)c12	-4%
COc1ccc2oc(=O)c(C(=O)N3CCN(c4ccccc4F)CC3)cc2c1	43%
CCOC(=O)N1CCN(C(=O)C(CC(C)C)NC(=O)C2CCCCC2)CC1 (centres undefined)	30%
CCN(CCCNC(=O)C1CCCN(S(=O)(=O)c2cnc[nH]2)C1)c1ccccc1 (centres undefined)	4µM*[single pt active]
CCOC(=O)Nc1ccc2c(c1)N(C(=O)N1CCN(C)CC1)c1ccccc1S2	150%
CCN(CC)CCCC(C)n1c(-c2ccccc2)nc2c(NC3CCCCC3)nc(C)nc21 (centres undefined)	88%
Cc1cc(C(C)(C)C)c(O)c(C(C)(C)C)c1	4%
Cc1cc(-n2c(C)cc(C(=O)CSc3ncnc4ccccc34)c2C)no1	100%
COC(=O)CSc1nnc(CNC(=O)c2ccccc2OC)n1-c1ccc(OC)cc1	30%
CCCCCCC(c1c(C)n(C)n(-c2ccccc2)c1=O)c1c(C)n(C)n(-c2ccccc2)c1=O	109%
Cc1ccc(Cn2c(SCC(=O)NCc3ccco3)nc3ccsc3c2=O)cc1	-8%
Cc1cccc(-c2c3c(=O)n(C)c(=O)n(C)c3cn2CCO)c1	-10%

Overlap with the part before: 2 entries, followed by the next part.
SMILES	AmpC nodet inh
Cc1ccc(Cn2c(SCC(=O)NCc3ccco3)nc3ccsc3c2=O)cc1	-8%
Cc1cccc(-c2c3c(=O)n(C)c(=O)n(C)c3cn2CCO)c1	-10%
COc1ccc(-c2cc3ccccc3oc2=O)cc1NC(=O)c1ccc(Br)o1	-2%
Cc1ccc(S(=O)(=O)Cn2nnnc2CN2CCN(C(=O)c3ccco3)CC2)cc1	32%
COC(=O)c1ccc2c(=O)n(CCCCCC(=O)NCc3ccccn3)c(=O)[nH]c2c1	11%
COc1ccc(-n2c(SCC(=O)N3CCCCC3)nnc2-c2cccnc2)cc1	36%
CC(C)(C)Nc1nc(SCc2ccccc2)nc(N2CCOCC2)n1	23%
CCCOC(=O)c1ccc(OC(=O)c2ccco2)cc1	-1%
COC(=O)c1[nH]c2ccc(C)cc2c1NC(=O)CN1CCN(c2ccc(F)cc2)CC1	73%
COc1ccc(OC)c(C2C(C(C)=O)=C(O)C(=O)N2Cc2cccnc2)c1 (centres undefined)	14%
Cc1ccc(CS(=O)(=O)CCC(=O)N2CCOCC2)cc1	-13%
COc1ccc(S(=O)(=O)N2CCN(c3ccccc3OC)CC2)cc1OC	-4%
CCOC(=O)C1=C(C)Nc2ncnn2C1c1ccccc1F (centres undefined)	0%
CS(=O)(=O)c1ccc(Cl)c(NC(=O)COC(=O)CNC(=O)c2ccc(Br)o2)c1	?
CC(C)(C)c1ccc2c(c1)OCC(C(=O)O)O2 (centres undefined)	-5%
CCn1nnnc1SCC(=O)Nc1cccc(NC(C)=O)c1	-10%
Cc1cnn(-c2ccc3nnc(-c4ccc(Br)cc4)n3n2)c1	-4%

Taken from above.
CCOC(=O)C1=C(C)Nc2ncnn2C1c1ccccc1F (centres undefined) – AmpC nodet inh: 0%
CCCOC(=O)c1ccc(OC(=O)c2ccco2)cc1 – AmpC nodet inh: -1%
COc1ccc(OC)c(C2C(C(C)=O)=C(O)C(=O)N2Cc2cccnc2)c1 (centres undefined) – AmpC nodet inh: 14%
COc1ccc(-n2c(SCC(=O)N3CCCCC3)nnc2-c2cccnc2)cc1 – AmpC nodet inh: 36%
COc1ccc(S(=O)(=O)N2CCN(c3ccccc3OC)CC2)cc1OC – AmpC nodet inh: -4%
COc1ccc(-c2cc3ccccc3oc2=O)cc1NC(=O)c1ccc(Br)o1 – AmpC nodet inh: -2%
Cc1ccc(S(=O)(=O)Cn2nnnc2CN2CCN(C(=O)c3ccco3)CC2)cc1 – AmpC nodet inh: 32%

Looked up by structure from the entries so far (4):
SMILES	AmpC nodet inh
Cc1cc(C(C)(C)C)c(O)c(C(C)(C)C)c1	4%
COc1ccc(-n2c(SCC(=O)N3CCCCC3)nnc2-c2cccnc2)cc1	36%
COc1ccc2oc(=O)c(C(=O)N3CCN(c4ccccc4F)CC3)cc2c1	43%
CC(C)C(=O)Nc1cccc(-c2cn3ccsc3n2)c1	-11%

Next structures follow:
SMILES	AmpC nodet inh
COc1ccc(NC(=O)C(CC(=O)O)Cc2ccccc2)cc1 (centres undefined)	-5%
COc1cccc(C2C(C(N)=O)=C(C)Nc3nc(-c4ccccc4Cl)nn32)c1 (centres undefined)	13%
CC(CCc1ccccc1)NC(=O)CSc1nccc(=O)[nH]1 (centres undefined)	-8%
COc1ccc(-c2nc3cnc(OC)nc3n(Cc3ccc(F)cc3)c2=O)cc1	-1%
c1ccc(CNc2nc(-c3ccc4c(c3)OCO4)nc3ccccc23)cc1	-7%
COc1cccc(C(=O)N2CCSC2=S)c1	-4%
O=c1c(-c2ccc(Cl)cc2)nc2cnc(Nc3ccccc3)nc2n1C[C@H]1CCCO1	4%
Cc1c(C(=O)N2CCOCC2)oc2ccc(S(=O)(=O)N3CCCCCC3)cc12	81%
Nc1nc2ccccc2n1C(=O)CCc1ccccc1	-2%
O=C(c1csc2c1CCCCC2)N1CCC2(CC1)OCCO2	14%
CCCCn1c(CN(Cc2ccccc2)Cc2ccccc2)nc2c1c(=O)n(C)c(=O)n2C	129%
Cc1cc(C)c(OCC(=O)Nc2cccc(NC(=O)c3ccco3)c2)c(Br)c1	?
O=C(O)c1cccn2c(=O)c3ccccc3nc12	0%
Cc1ccccc1CSc1nnc(-c2ccco2)n1Cc1ccco1	32%
CC(C)C[C@H](N)C(=O)O	-3%[5.75 µM]
COc1ccc(-c2noc(CCC(=O)NCc3cccnc3)n2)cc1	21%
Cc1ccccc1-c1nnc(SCC(=O)Nc2ccc(Cl)cc2)n1N	5%
c1cc2cn[nH]c2cc1NC1CCCCCC1	-11%
Cc1ccc(C)c(-n2c(Cc3cc(=O)[nH]c(=O)[nH]3)nnc2SCC(=O)NCc2ccco2)c1	11%
CC1CN(S(=O)(=O)c2ccccc2)CC(C)O1 (centres undefined)	-2%
CCOC(=O)C1=C(N)Oc2cc(C)[nH]c(=O)c2C1c1ccncc1 (centres undefined)	-6%
O=C(NCCN1CCOCC1)C1CCC(=O)N1Cc1ccccc1Cl (centres undefined)	-8%
COc1ccc(OC)c(NC(=O)c2[nH]c(C)c(C(C)=O)c2C)c1	8%
CS(=O)(=O)Nc1ccc(S(=O)(=O)NCCc2ccccc2)cc1	2%
CC1C(=O)CC(c2ccccc2)N(C)C1c1ccccc1 (centres undefined)	4µM*[single pt active]
OCCNc1ncnc2ccc(Br)cc12	-2%
CS(=O)(=O)C1=C(O)C(=O)N(CCCC(=O)O)C1c1ccccc1F (centres undefined)	8%
OC(CNCCc1ccc(Cl)cc1)COCc1ccco1 (centres undefined)	33%
Cn1c(=O)[nH]c(=O)c2c1ncn2CCCc1ccccc1	-1%
COc1ccc(OC)c(-c2nnc(NC(=O)C(C)Sc3nncn3C)s2)c1 (centres undefined)	90%
O=C(c1cccc(N2C(=O)C3CC=CCC3C2=O)c1)N1CCCCCC1 (centres undefined)	35%
CCCNC(=O)CCC(=O)Nc1ncc(-c2ccc(C)cc2)n1C	7%
Cc1oc(/N=C/c2c(O)ccc3ccccc23)c(C#N)c1C	-10%
CCOC(=O)Cc1cnc(NC(=O)NC(C(=O)OCC)(c2ccccc2)C(F)(F)F)s1 (centres undefined)	-11%
Cn1c(C(=O)NC2CC2)cc2c(=O)n(C)c3ccccc3c21	4µM*[single pt active]
CCOc1ccc(NC(=O)C(C)Sc2nnnn2C)cc1 (centres undefined)	-1%
O=C(Cc1cccs1)N1CCN(c2ccccn2)CC1	-3%
CCOC(=O)CCCNC(=O)CN1C(=O)NC(CCc2ccccc2)C1=O (centres undefined)	9%
Cc1ccnn2c(-c3ccccc3)c3c(=O)n(C)c(=O)n(C)c3c12	10%
CCCN(CCC)C(=O)Cn1c(=O)n(CCCCC(=O)NCc2ccco2)c(=O)c2ccccc21	70%
Cc1noc(C)c1C(=O)OC(C(=O)NC1CCCC1)c1ccc(F)cc1 (centres undefined)	0%
COCCCNC(=O)CCNS(=O)(=O)c1ccc(C)cc1	3%
CC1CN(Cc2nc3c(c(=O)n(C)c(=O)n3C)n2CCc2ccccc2)CC(C)O1 (centres undefined)	-6%
COc1ccc(S(=O)(=O)N2CCCCCC2)cc1C(=O)OCC(=O)NC(N)=O	11%
COc1ccc(-c2nnn(CC(=O)NC3CCCc4ccccc43)n2)cc1OC (centres undefined)	53%
O=C(NCc1ccco1)C1CCCN(S(=O)(=O)c2cccc3nsnc23)C1 (centres undefined)	3%
CCN1C(=O)c2ccccc2S(=O)c2ccc(C(=O)NC3CC3)cc21 (centres undefined)	7%
CCC(C)(C)n1nnnc1C(c1cccnc1)N1CCCc2ccccc21 (centres undefined)	99%
O=C(NC1CC1)c1ccc2c(c1)ncn2C1CCCC1	-7%
CC1CN(Cc2nc3c(c(=O)n(C)c(=O)n3C)n2CC(=O)c2ccccc2)CC(C)O1 (centres undefined)	45%
COC(=O)Cn1c(=O)sc2ccccc21	2%
CN1CSC(=S)N(C)C1	-2%
O=C(O)Cc1ccc(C(=O)c2cccs2)s1	-9%
CCOC(=O)N1CCN(c2c(F)cc3[nH]c(=S)[nH]c3c2Br)CC1	3%
COc1ccc(C(=O)COC(=O)Cn2nnc3ccccc32)cc1Br	19%
O=S(=O)(O)c1ccc(O)c2ncccc12.O=S(=O)(O)c1ccc(O)c2ncccc12.[Zn]	-10%[5.75 µM]
COC(=O)Nc1nnc(CC(=O)Nc2ccccc2C)s1	-1%
CCCCSc1nnc(-c2ccc(NC(=O)CC)cc2)n1C	18%
CCn1cc(C(=O)NCC2CCCO2)c(=O)c2cc(S(=O)(=O)N3CCCCC3)ccc21 (centres undefined)	95%
COc1cccc(C(O)CC(N)=O)c1 (centres undefined)	-8%

(list continues)
SMILES	AmpC nodet inh
CCOC(=O)c1ccccc1NC(=O)c1ccc(NS(C)(=O)=O)cc1	51%
O=C(c1ccccc1F)N1CCN(c2ccccc2F)CC1	20%
CCn1c(=N)n(CCOc2ccc(OC)cc2)c2ccccc21	4%
CCOC(=O)c1c(C)c(C(=O)N(C)C2CCCCC2)c(C)n1C	61%
CC(=NCCCN1CCCCC1)c1c(O)n(Cc2ccccc2)c(=O)[nH]c1=O	35%
Cc1cc(NC(=O)CSc2nnc(-c3ccoc3C)o2)no1	3%
CCN1CCN(C(c2ccc(F)cc2)c2nnnn2Cc2cccs2)CC1 (centres undefined)	14%
O=C(CSc1nc2ccccc2c(=O)n1-c1ccccc1)NCc1ccco1	0%
O=C1NC(=O)[C@@](Cc2ccccc2)(c2cccnc2)N1	-1%[5.75 µM]
CCC(C)C1C(C#N)=C(N)Oc2n[nH]c(C)c21 (centres undefined)	10%
O=C(c1ccc(Cl)s1)N1CCN(c2ccccc2)CC1	13%
Cc1noc(C)c1CSc1ncnc2sc(C)c(C)c12	24%
COc1ccc(-c2cc(-c3cccs3)c(C#N)c(SCC(=O)NCc3ccco3)n2)cc1	-16%
O=C(Nc1ccccc1)Nc1nncs1	0%
C[C@@H]1CC2(OC[C@]3(C)O[C@H]23)O[C@H]2C[C@@]3(C)[C@@H]4CC[C@H]5C(C)(C)C(O[C@@H]6OC[C@@H](O)[C@H](O)[C@H]6O)CC[C@@]56C[C@@]46CC[C@]3(C)[C@@H]12 (some centres undefined)	152%
O=C(Nc1ccc2c(c1)OCCO2)c1ccc(CN2CCOCC2)cc1	12%
CCOC(=O)c1c(C)oc2ccc(O)c(CN3CCCCC3)c12	15%
O=C(COc1ncnc2ccccc12)NCCCN1CCCC1=O	-3%
CCOC(=O)Cn1c(CN2CCN(c3cccc(Cl)c3)CC2)nc2c1c(=O)[nH]c(=O)n2C	117%
COc1cc2[nH]c(=O)n3nc(-c4ccccc4)nc3c2cc1OC	123%
N#Cc1ccc(CN2CCC3(CC2)CCN(S(=O)(=O)c2ccccc2)CC3)cc1	27%
CCCc1ccc(Oc2cn[nH]c2-c2ccc(O)cc2O)cc1	-14%
